High-throughput results from PubChem BioAssay.
FGF22 binding – binders of human FGF22 protein, primary screen, FGF22 synaptogenesis inhibitor project, biophysical, thermal shift, single point. Fibroblast growth factor 22 (Homo sapiens), Q9HCT0. recombinant FGF22 thermal shift, SYPRO orange fluorescence; percent of sucrose octasulfate shift, DMSO zero. calls only at 9.99 µM. 340,000 compounds, 1.5% hits;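 active = melting point raised past a set limit in the mean and every replicate; three in four hits are not shown here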
Target sequence (Q9HCT0 whole entry, looked up): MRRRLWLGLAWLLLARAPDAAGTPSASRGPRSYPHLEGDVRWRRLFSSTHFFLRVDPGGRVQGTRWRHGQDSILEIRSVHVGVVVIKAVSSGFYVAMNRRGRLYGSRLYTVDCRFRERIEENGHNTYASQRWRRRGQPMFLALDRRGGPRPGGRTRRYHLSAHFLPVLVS
Ecoli rRNA inh – reduced GFP signal of wild-type E. coli, primary screen, bacterial rRNA inhibitor project, GFP/RFP fluorescence, OD600, single point; E. coli WT GFP vs humanized-ribosome RFP mutants, 24 h; active compounds read low; DMSO median 0, no signal -100; GFP signal change (wild-type ribosome), % (no concentration beside the values); 350,000 compounds, 1.6% hits; AID 720706, 2013;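 active = significant combined selectivity score with lowered wild-type GFP, culture density cut under 30%, mutant RFP and density less affected; inactive = any of these conditions unmet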; also: one replicate is shown; some compounds called inactive have numbers as strong as hits
Ecoli rRNA inh OD600 – also measured in Ecoli rRNA inh; calls as there; OD600 change, %; measured here: OD600 growth;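 optical density of the mix in the first replicate; 0 = DMSO median and -100 = no signal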
Ecoli rRNA inh RFP – recorded beside Ecoli rRNA inh, whose call it bears; RFP signal change, %; measured here: RFP humanized mutant strains;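 first replicate; 0 = DMSO median and -100 = no signal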
Numbers without * were called inactive; i = inactive; + = active, no number.

cpd | SMILES | FGF22 binding | Ecoli rRNA inh
1 | CC(C)NC(=O)N(C)C[C@@H]1Oc2c(NC(=O)c3cnccn3)cccc2C(=O)N([C@H](C)CO)C[C@H]1C | i | 3
2 | Cc1ccc(S(=O)(=O)Nc2ccc3c(c2)C(=O)N([C@@H](C)CO)C[C@@H](C)[C@@H](CN(C)S(=O)(=O)c2ccc(Cl)cc2)OCCCC[C@@H](C)O3)cc1 | i | -2
3 | C[C@@H]1CN([C@H](C)CO)C(=O)c2cc(NS(=O)(=O)c3ccccc3)ccc2O[C@@H]1CN(C)C(=O)NC1CCCCC1 | i | -3
4 | C[C@@H]1CN([C@H](C)CO)C(=O)c2cc(-c3ccc(C(=O)N(C)C)cc3)cnc2O[C@@H]1CN(C)C(=O)c1ccncc1 | i | 6
5 | C[C@@H]1CN([C@@H](C)CO)C(=O)Cc2cc(NS(=O)(=O)c3ccc(F)cc3)ccc2O[C@@H]1CN(C)C(=O)Nc1cccc2ccccc12 | i | -4
6 | COc1ccc(S(=O)(=O)Nc2ccc3c(c2)CC(=O)N([C@@H](C)CO)C[C@H](C)[C@@H](CN(C)S(=O)(=O)c2cccs2)O3)cc1 | i | -3
7 | C[C@@H]1CN([C@@H](C)CO)C(=O)c2c(c3ccccc3n2C)-c2ccccc2CO[C@H]1CN(C)C(=O)CCC(F)(F)F | i | -2
8 | C[C@@H]1CN([C@H](C)CO)C(=O)c2cc(NC(=O)c3ccncc3)ccc2O[C@@H]1CN(C)C | i | -4

cpd | Ecoli rRNA inh OD600 | Ecoli rRNA inh RFP
1 | 6 | -1.5
2 | 0 | -2.6
3 | 2 | 0.5
4 | 5 | -4.5
5 | -8 | 8.8
6 | 3 | 0.3
7 | -4 | 1.0
8 | 7 | -0.3

(further entries)
cpd | SMILES | FGF22 binding | Ecoli rRNA inh
9 | O=C(Nc1cc(F)ccc1F)N[C@@H]1CC[C@H](CCNC(=O)c2cnccn2)O[C@@H]1CO | i | 6
10 | COc1ccc(NC(=O)N(C)C[C@@H]2OCc3ccccc3-c3c(n(C)c4ccccc34)C(=O)N([C@@H](C)CO)C[C@@H]2C)c(OC)c1 | i | -3
11 | CN(C)CC(=O)Nc1ccc2c(c1)[C@H]1C[C@@H](CC(=O)NC3CCCCC3)O[C@H](CO)[C@H]1O2 | i | 6
12 | CCNC(=O)C[C@@H]1CC[C@@H]2[C@H](COC[C@@H](O)CN2C(=O)C2CCOCC2)O1 | i | -5
13 | Cc1nn(C)cc1NC(=O)C[C@H]1CC[C@@H]2[C@H](COc3ccc(NC(=O)Nc4cccc(Cl)c4)cc3C(=O)N2C)O1 | i | -4
14 | CCNC(=O)C[C@H]1CC[C@@H]2[C@H](COc3ccc(NC(=O)c4cccc(C(F)(F)F)c4)cc3C(=O)N2C)O1 | i | -1
15 | C/C=C/c1cnc2c(c1)C(=O)N([C@@H](C)CO)C[C@H](C)[C@@H](CN(C)CC1CCOCC1)O2 | i | 6
16 | C[C@@H]1CN([C@@H](C)CO)C(=O)c2cc(NS(=O)(=O)c3ccc(F)cc3)ccc2O[C@@H](C)CCCCO[C@@H]1CN(C)S(=O)(=O)c1ccc(Cl)cc1 | i | 1

cpd | Ecoli rRNA inh OD600 | Ecoli rRNA inh RFP
9 | 5 | -2.8
10 | -10 | 1.5
11 | 10 | -0.1
12 | -6 | 24
13 | -1 | 7.2
14 | 8 | 0.1
15 | 15 | 0.1
16 | 5 | -0.7

Three compounds out of the list, sorted by molecular weight, descending.
cpd | SMILES | FGF22 binding | Ecoli rRNA inh
3 | C[C@@H]1CN([C@H](C)CO)C(=O)c2cc(NS(=O)(=O)c3ccccc3)ccc2O[C@@H]1CN(C)C(=O)NC1CCCCC1 | i | -3
8 | C[C@@H]1CN([C@H](C)CO)C(=O)c2cc(NC(=O)c3ccncc3)ccc2O[C@@H]1CN(C)C | i | -4
12 | CCNC(=O)C[C@@H]1CC[C@@H]2[C@H](COC[C@@H](O)CN2C(=O)C2CCOCC2)O1 | i | -5

cpd | Ecoli rRNA inh OD600 | Ecoli rRNA inh RFP
3 | 2 | 0.5
8 | 7 | -0.3
12 | -6 | 24

The results go on:
cpd | SMILES | FGF22 binding | Ecoli rRNA inh
17 | CO[C@@H]1CN(C)C(=O)c2cc(NC(C)=O)ccc2OC[C@@H](C)N(C(=O)c2cnccn2)C[C@H]1C | i | 2
18 | CO[C@H]1CC[C@@H]2CCN(C)C(=O)[C@@H](C)CN(C)C(=O)c3cccc(C#N)c3OC[C@H]1O2 | i | 2
19 | Cc1cc(C(=O)Nc2cccc3c2O[C@@H](CN(C)Cc2ccc(Cl)c(Cl)c2)[C@@H](C)CN([C@H](C)CO)C3=O)n(C)n1 | i | -6
20 | CO[C@@H]1CN(C)C(=O)c2cc(NC(C)=O)ccc2OC[C@@H](C)N(Cc2cc(F)ccc2F)C[C@H]1C | i | -3
21 | COc1ccc2c3c(n(C)c2c1)[C@H](CO)NCC31CCN(S(=O)(=O)c2cccc(F)c2)CC1 | i | -1
22 | CC(C)NC(=O)N(C)C[C@@H]1Oc2ccc(NC(=O)CCCCCC(=O)Nc3ccccc3N)cc2C(=O)N([C@H](C)CO)C[C@@H]1C | i | 1
23 | CCCNC(=O)C[C@@H]1C[C@@H]2c3cc(NC(=O)NC4CCCC4)ccc3O[C@@H]2[C@H](CO)O1 | i | -1
24 | COc1ccc(S(=O)(=O)N(C)C[C@H]2OCCCC[C@@H](C)Oc3ccc(NS(=O)(=O)c4ccc(Cl)cc4)cc3C(=O)N([C@H](C)CO)C[C@@H]2C)cc1 | i | -1

cpd | Ecoli rRNA inh OD600 | Ecoli rRNA inh RFP
17 | 3 | 0.9
18 | 6 | -3.9
19 | -7 | 1.7
20 | -6 | -2.0
21 | -26 | 3.7
22 | 3 | -0.2
23 | 3 | -2.4
24 | -3 | 1.4

Remaining list, next part
cpd | SMILES | FGF22 binding | Ecoli rRNA inh
25 | COc1ccc(C[C@@H]2CCc3cnnn3COC[C@@H](Cc3ccccc3)NC2=O)cc1 | i | 1
26 | CCCN1C[C@@H](C)[C@@H](OC)CN(C)C(=O)c2ccc(NC(=O)Nc3ccccc3F)cc2OC[C@H]1C | i | 1
27 | COc1cccc(S(=O)(=O)N2CCCCN3[C@H](C2)[C@@H](c2ccc(C#CC4CC4)cc2)[C@@H]3CO)c1 | i | 3
28 | COc1ccc(S(=O)(=O)Nc2ccc3c(c2)CC(=O)N([C@@H](C)CO)C[C@@H](C)[C@@H](CN(C)S(=O)(=O)c2ccc(Cl)cc2)O3)cc1 | i | 0
29 | Cc1ccc(S(=O)(=O)N(C)C[C@@H]2OCCCC[C@@H](C)Oc3ccc(NC(=O)Nc4ccc5c(c4)OCO5)cc3C(=O)N([C@@H](C)CO)C[C@@H]2C)cc1 | i | 1
30 | Cc1noc(C)c1S(=O)(=O)Nc1ccc2c(c1)C(=O)N([C@H](C)CO)C[C@H](C)[C@H](CN(C)CC1CCCCC1)OCCCC[C@@H](C)O2 | i | 2
31 | COc1ccc2c3c(n(C)c2c1)[C@@H](CO)N(Cc1cccnc1)CC31CCN(C(=O)NC(C)C)CC1 | i | 1
32 | CCC(=O)Nc1ccc2c(c1)C(=O)N(C)[C@H]1CC[C@@H](CC(=O)N[C@H](C)c3ccccc3)O[C@@H]1CO2 | i | 2

cpd | Ecoli rRNA inh OD600 | Ecoli rRNA inh RFP
25 | 12 | -6.1
26 | -1 | -1.2
27 | 2 | -1.1
28 | -6 | 4.7
29 | 8 | -1.8
30 | -2 | -0.8
31 | 9 | 1.0
32 | 4 | -0.4

(list continues)
cpd | SMILES | FGF22 binding | Ecoli rRNA inh
33 | CN(C)C(=O)c1ccc(-c2ccc([C@@H]3[C@@H](CO)N4CCCCN(Cc5cncnc5)C[C@@H]34)cc2)cc1 | i | 4
34 | C[C@@H]1CN([C@H](C)CO)C(=O)Cc2cc(NC(=O)Nc3ccc4c(c3)OCO4)ccc2O[C@@H]1CN(C)Cc1ccc(C(=O)Nc2ccccc2N)cc1 | i | -4
35 | CCC(=O)Nc1ccc2c(c1)C(=O)N(C)C[C@@H](OC)[C@@H](C)CN(Cc1ccccc1C(=O)O)[C@H](C)CO2 | i | 0
36 | C[C@@H]1CN([C@H](C)CO)C(=O)c2c(c3ccccc3n2C)-c2ccccc2CO[C@@H]1CN(C)S(=O)(=O)c1ccccc1F | i | 6
37 | COc1ccc(NC(=O)Nc2ccc3c(c2)C(=O)N([C@H](C)CO)C[C@H](C)[C@H](CN(C)C(=O)NC2CCCCC2)OCCCC[C@@H](C)O3)cc1 | i | 5
38 | CN(C)Cc1cn(CC[C@H]2CC[C@@H](NC(=O)Cc3cccnc3)[C@H](CO)O2)nn1 | i | 5
39 | COc1ccc(NC(=O)N(C)C[C@H]2Oc3ccc(NS(=O)(=O)c4ccc(F)cc4)cc3CC(=O)N([C@H](C)CO)C[C@H]2C)cc1 | i | 3
40 | CN(C)CCCNC(=O)[C@H]1[C@H](CO)[C@H]2Cn3c(ccc(-c4cccc(F)c4)c3=O)[C@H]2N1C | i | 4

cpd | Ecoli rRNA inh OD600 | Ecoli rRNA inh RFP
33 | 10 | 4.0
34 | -5 | 1.8
35 | -2 | -1.1
36 | 2 | -2.9
37 | 6 | 0.0
38 | -2 | -2.8
39 | 5 | 0.2
40 | 22 | 4.0

Additional records.
cpd | SMILES | FGF22 binding | Ecoli rRNA inh
41 | CO[C@H]1CN(C)C(=O)c2ccc(NC(=O)NC(C)C)cc2OC[C@H](C)N(Cc2ccccn2)C[C@H]1C | i | 1
42 | CO[C@@H](CN(C)C(=O)c1ccc2c(c1)OCO2)[C@H](C)CN([C@@H](C)CO)S(=O)(=O)c1ccc(F)cc1 | i | 4
43 | CCCC#Cc1ccc2c(c1)O[C@@H](CN(C)C)[C@H](C)CN([C@H](C)CO)S2(=O)=O | i | 5
44 | C[C@H](CO)N1C[C@H](C)[C@@H](CN(C)C)Oc2ccc(NC(=O)Cc3ccccc3)cc2C1=O | i | 3
45 | CC(C)NC(=O)Nc1ccc2c(c1)C(=O)N([C@H](C)CO)C[C@H](C)[C@H](CN(C)C(=O)Nc1cccc3ccccc13)O2 | + | -3
46 | C[C@@H]1CN([C@H](C)CO)C(=O)c2cccc(NS(=O)(=O)c3cccs3)c2O[C@@H]1CN(C)S(C)(=O)=O | i | 3
47 | C[C@@H]1CN([C@H](C)CO)C(=O)c2ccccc2-c2ccccc2CO[C@H]1CN(C)C(=O)Nc1ccccc1 | i | -1
48 | C[C@@H]1CN([C@H](C)CO)C(=O)c2cccc(NS(=O)(=O)c3cccs3)c2O[C@H]1CN(C)Cc1ccc(C(=O)Nc2ccccc2N)cc1 | i | 2

cpd | Ecoli rRNA inh OD600 | Ecoli rRNA inh RFP
41 | -8 | -0.3
42 | 7 | -5.0
43 | 7 | -3.2
44 | -12 | -3.0
45 | 7 | 0.1
46 | 4 | -0.7
47 | 6 | -1.8
48 | -5 | -0.1

Remaining list, next part.
cpd | SMILES | FGF22 binding | Ecoli rRNA inh
49 | C[C@H]1CN([C@@H](C)CO)C(=O)Cc2cc(NS(=O)(=O)c3ccc(F)cc3)ccc2O[C@@H]1CN(C)S(=O)(=O)c1cn(C)cn1 | i | 3
50 | CCCNC(=O)Nc1ccc2c(c1)C(=O)N(C)C[C@H](OC)[C@@H](C)CN(C)[C@H](C)CO2 | i | 2
51 | Cc1cccc(S(=O)(=O)N2CC[C@@H]3[C@@H](CO)Nc4ccc(C#Cc5ccccc5F)cc4[C@@H]32)c1 | i | -2
52 | C[C@@H]1CN([C@H](C)CO)C(=O)c2cc(NC(=O)C3CCCCC3)ccc2O[C@@H](C)CCCCO[C@@H]1CN(C)S(=O)(=O)c1cn(C)cn1 | i | 1
53 | C[C@H](CO)N1C[C@H](C)[C@H](CN(C)S(=O)(=O)c2ccccc2)Oc2ccc(NC(=O)Cc3ccccc3)cc2C1=O | i | 2
54 | Cc1noc(C)c1NC(=O)N(C)C[C@@H]1Oc2ncc(C#Cc3ccc(C(F)(F)F)cc3)cc2C(=O)N([C@H](C)CO)C[C@@H]1C | i | -5
55 | C[C@@H]1CN([C@H](C)CO)C(=O)c2cccc(N(C)C)c2O[C@H]1CN(C)S(C)(=O)=O | i | 4
56 | C[C@@H]1CN([C@@H](C)CO)C(=O)Cc2cc(NC(=O)CCN3CCOCC3)ccc2O[C@@H]1CN(C)Cc1ccc(C(=O)O)cc1 | i | 3

cpd | Ecoli rRNA inh OD600 | Ecoli rRNA inh RFP
49 | 6 | -2.7
50 | 7 | 1.9
51 | -3 | 0.1
52 | 2 | 3.0
53 | -6 | 2.0
54 | 7 | 0.4
55 | 7 | -0.6
56 | 11 | -3.2

(more compounds)
cpd | SMILES | FGF22 binding | Ecoli rRNA inh
57 | C[C@@H]1CN([C@@H](C)CO)C(=O)c2cc(NS(=O)(=O)c3ccccc3)ccc2O[C@@H](C)CCCCO[C@H]1CN(C)C(=O)CCCN(C)C | i | 2
58 | CO[C@H]1CN(C)C(=O)c2ccc(NC(=O)Nc3ccc(F)cc3)cc2OC[C@@H](C)NC[C@@H]1C | i | -2
59 | C[C@H]1CN([C@@H](C)CO)C(=O)Cc2cc(NC(=O)CCC(F)(F)F)ccc2O[C@@H]1CN(C)CC1CCCCC1 | i | 2
60 | COCC(=O)N(C)C[C@@H]1Oc2ncc(C#CC(C)(C)O)cc2C(=O)N([C@H](C)CO)C[C@H]1C | i | -1

cpd | Ecoli rRNA inh OD600 | Ecoli rRNA inh RFP
57 | 7 | -0.6
58 | 4 | 1.5
59 | -3 | -0.2
60 | 2 | 0.1

Only part of the results is shown; the hit share may differ from the screen's.
